# Bioassay records: PubChem, National Center for Advancing Translational Sciences (NCATS)
# ClpP mod: qHTS Assay for Activators of ClpP. purified B. subtilis ClpP, FRET peptide cleavage, 20 min. Potency, µM (top dose mostly 57.5 µM), for inactives: at the highest dose activity change, negative = active. 340,000 compounds, 1.9% hits. AID 651965, 2013; active = well fitted falling curve with a large enough effect; inconclusive = small, poorly fitted or top-dose-only effect; inactive = no such curve, though single readings can be large or run the other way; note: the source files actives as falling curves though it sought activators and does not explain the sign; nearly all actives have a fitted effect of over 65% in size; many hits overshoot -100%
# Target sequence (P80244 whole entry, looked up): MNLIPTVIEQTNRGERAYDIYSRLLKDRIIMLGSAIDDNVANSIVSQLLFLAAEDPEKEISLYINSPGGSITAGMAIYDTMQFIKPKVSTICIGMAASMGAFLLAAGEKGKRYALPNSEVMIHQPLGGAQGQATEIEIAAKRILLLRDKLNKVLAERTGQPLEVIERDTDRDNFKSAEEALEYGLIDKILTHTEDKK
#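 Buffer: 100 mM Tris/HCl pH8, 100 mM KCl, 0.05% low protease BSA, 2.5% glycerol, 0.01% Tween-20. ClpP 10 microg/mL final; 20 min RT; delta FRET normalized to ADEP and DMSO controls.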
# * = called active by the depositor; ? = inconclusive. Potency is the fitted concentration of half-maximal effect. Only part of the results is shown (hit frequency here may not be typical).
No.	mol	ClpP mod
1	O=C(NCCc1ccccc1)C(=O)NCC(c1ccco1)S(=O)(=O)c1cccs1 (stereo unspecified)	-1.3%
2	CC1CCC(NC(=O)C2(C)Cc3ccccc3C(=O)N2Cc2ccc(Cl)cc2)CC1 (stereo unspecified)	-1.6%
3	Cc1ccc(C)c(NC(c2ccccc2)c2nnc(-c3ccccc3F)o2)c1 (stereo unspecified)	-1.7%
4	CCOc1ccc(S(=O)(=O)Nc2ccc(OC)c(Cl)c2)c2cccnc12	-2.0%
5	CCc1cccc(C)c1NC(=O)c1ccc2c(c1)CCN2S(=O)(=O)c1ccc(Cl)cc1	0.4%
6	COc1cccc(-c2noc(C3CC(=O)N(c4ccc(F)cc4)C3)n2)c1OC (stereo unspecified)	-0.4%
7	COc1cc(NC(=O)c2cc(Cl)ccc2Cl)ccc1NC(=O)c1cc2ccccc2o1	28µM*
8	COc1cc(-c2nc(-c3ccc4c(c3)[nH]c(=O)n4C)no2)cc(OC)c1OC	?
9	CCc1nnc(SC(CC)C(=O)Nc2cccc(OC)c2)c2cc3oc(C)cc3n12 (stereo unspecified)	-17%
10	CC(Oc1ccc(F)cc1)C(=O)Nc1nc(-c2ccc(F)cc2)ns1 (stereo unspecified)	-1.3%
11	CCOc1ccccc1NS(=O)(=O)c1ccc2c(c1)CC(C)N2C(=O)C1CCC1 (stereo unspecified)	0.5%
12	CC(C)CCNC(=O)c1ccc2nc(Cc3ccccc3)oc2c1	-2.4%
13	O=[N+]([O-])c1ccc(/C=C/c2cc(Cl)nc3ccccc23)cc1	0.1%
14	Cc1ccccc1OCc1nc2c3cnn(-c4ccccc4Br)c3ncn2n1	-1.1%
15	COc1ccc(NC(=O)CN2C(=O)CCn3nc(-c4cccn4C)cc32)cc1	-1.9%
16	CCOc1ccc2cc(-c3nnc(Nc4ccc(C)cc4)s3)c(=O)oc2c1	-0.5%
17	CCOc1ccc(NC(=O)N(Cc2c[nH]c3ccccc23)C2CCCCCC2)cc1	-9.1%
18	Cc1nnc(N2CCN(c3ccccc3)CC2)c2c1nnn2Cc1ccc(F)cc1	-4.5%
19	COc1ccc(Cl)cc1NC(=O)CSC1=Nc2ccccc2C2=NC(CC(=O)NCc3ccc4c(c3)OCO4)C(=O)N12 (stereo unspecified)	-8.8%
20	CCS(=O)(=O)c1ncc(N(Cc2ccco2)Cc2sccc2C)c(C(=O)Nc2cc(C)ccc2C)n1	-1.1%
21	Cc1ccc(C)c(-c2[nH]c3c(c2-c2c(-n4cccc4)n(C)c(=O)n(C)c2=O)c(=O)n(C)c(=O)n3C)c1	1.7%
22	COc1ccccc1Cn1cc(C(=O)c2ccc(F)cc2)c(=O)c2cc3c(cc21)OCO3	-1.2%
23	COc1cccc(C(=O)Nc2ccccc2-c2nnc(-c3cc(OC)ccc3Br)o2)c1	-9.8%
24	Cc1ccc(-n2c(=O)[nH]c3cc(C(=O)NCc4ccccc4)ccc3c2=O)cc1	?
25	CCCC(=O)N1c2nc(-c3ccco3)nn2C2(CCCCC2)[C@@H]2CCCC[C@@H]21	-7.3%
26	CCc1cccc(NC(=O)Cn2c(=O)n(CCc3ccc(OC)c(OC)c3)c(=O)c3ccccc32)c1	?
27	Cc1ccc(S(=O)(=O)Cc2nc(-c3ccc(C(=O)NCc4ccccc4C)cc3)oc2C)cc1	4.0%
28	CCOC(=O)CSc1nnc2n(-c3ccccc3)c(=O)c3c4c(sc3n12)COC(C(C)C)C4 (stereo unspecified)	0.1%
29	Cc1ccc(CNC(=O)c2nc(SCc3ccccc3C)ncc2Cl)cc1	-0.7%
30	O=C1C[C@H]2C=CCc3cccc(c32)CN1Cc1cccc(F)c1	-11%
31	Cc1ccc(NC(=O)C(=O)NCc2ccco2)cc1	4.3%
32	CCCCNC(=O)CCn1c(=O)c2ccccc2n(Cc2ccccc2C#N)c1=O	-21%
33	N#Cc1ccc(OC(=O)c2cc(-c3ccc4c(c3)OCCO4)on2)cc1	-15%
34	Cc1ccc(-c2nc3nc(C)cc(Nc4ccccc4O)n3n2)cc1	-1.4%
35	CCOc1ccc(NC(=O)CC2C(=O)N(c3cccc(C)c3)C(=O)N2Cc2cccs2)cc1 (stereo unspecified)	0.0%
36	CCOC(=O)c1noc2ncnc(Nc3cc(Cl)c(OC)cc3OC)c12	-0.5%
37	CNC(=O)c1ccc(Nc2nnc(-c3ccc(C)c(S(=O)(=O)NC(C)(C)C)c3)c3ccccc23)cc1	?
38	CCCCn1cc(S(=O)(=O)c2ccc(C)c(C)c2)c(=O)c2cc(F)c(N(CC)CC)cc21	-24%
39	Cc1ccc2nc(COc3cccc(NC(=O)COc4ccc(F)cc4)c3)cc(=O)n2c1	?
40	O=S(=O)(c1ccc2c(c1)OCCO2)N1CCN(CCc2ccccc2)CC1	-4.7%
41	COc1ccc(C)cc1S(=O)(=O)N1CCN(c2cccc(Cl)c2)CC1	-2.1%
42	CCC1=Nc2cc(C(=O)NC3CCCC3)ccc2Sc2ccc(Br)cc21	-0.9%
43	COc1ccc(NC(=O)c2ccco2)cc1NC(=O)COc1cccc(C)c1C	-0.6%
44	Cc1[nH]c2ccc(C(=O)N3CCN(c4ccccc4F)CC3)cc2c1C	-2.5%
45	CCOc1ccc(NC(=O)c2ncoc2-c2ccco2)cc1	-2.3%
46	Cc1ccc(NC(=O)c2cn3c4c(ccc(Cl)c4c2=O)OC(C)C3)c(C)c1 (stereo unspecified)	-4.3%
47	Cc1cccc(Nc2c3c(nc4nncn24)CCC3)c1	-1.5%
48	CCCN(CCC)CC(O)Cn1cc(/C=C/C(=O)c2ccc(Br)cc2)c2ccccc21 (stereo unspecified)	-0.2%
49	CCC(C(=O)Nc1c(C)cc(C)cc1C)n1c(=O)c(-c2ccccc2NC(C)=O)nc2ccccc21 (stereo unspecified)	-2.6%
50	COc1ccc(NC(=O)C2=C(C)Nc3nc(CCCO)nn3C2c2ccc(O)cc2)cc1 (stereo unspecified)	0.1%
51	CCc1ccc(C(=O)c2cn(CC(=O)Nc3ccc(OC)cc3)c3cc4c(cc3c2=O)OCCO4)cc1	-0.9%
52	Cc1ccc(S(=O)(=O)NCCc2nnc3ccc(SCc4ccc(F)cc4)nn23)cc1	-3.4%
53	COc1ccc(Cl)cc1NC(=O)CSc1nnc(C)n2c1cc1sccc12	-9.9%
54	CC(C)Oc1ccc(C(=O)N(Cc2ccc(N(C)C)cc2)Cc2ccco2)cc1	-5.7%
55	CCNc1nc(N2CCCN(C)CC2)nc2cc(OC)c(OC)cc12	4.3%
56	COc1ccc(-c2nc(SCC(=O)NC3CCCC3)c(-c3ccc(F)cc3)[nH]2)cc1	-14%
57	CCOc1ccc(N2CC(NC(=O)Cc3cccs3)CC2=O)cc1 (stereo unspecified)	-0.5%
58	O=C(NCCSCc1cccc(Cl)c1)C1CCN(S(=O)(=O)Cc2ccccc2)CC1	-0.1%
59	COc1ccc(-c2noc(CN(C(=O)c3ccccc3Cl)C(C)C)n2)cc1	0.0%
60	Cc1cccc(C)c1NC(=O)Cn1cc(S(=O)(=O)Cc2ccc(F)cc2)c2ccccc21	-5.2%

# Quoted from above: compounds 1 to 5
No.	mol	ClpP mod
1	O=C(NCCc1ccccc1)C(=O)NCC(c1ccco1)S(=O)(=O)c1cccs1 (stereo unspecified)	-1.3%
2	CC1CCC(NC(=O)C2(C)Cc3ccccc3C(=O)N2Cc2ccc(Cl)cc2)CC1 (stereo unspecified)	-1.6%
3	Cc1ccc(C)c(NC(c2ccccc2)c2nnc(-c3ccccc3F)o2)c1 (stereo unspecified)	-1.7%
4	CCOc1ccc(S(=O)(=O)Nc2ccc(OC)c(Cl)c2)c2cccnc12	-2.0%
5	CCc1cccc(C)c1NC(=O)c1ccc2c(c1)CCN2S(=O)(=O)c1ccc(Cl)cc1	0.4%

# (cont.)
No.	mol	ClpP mod
61	CCCC1=Nc2cc(C(=O)NCc3ccccc3)ccc2Sc2ccccc21	-0.2%
62	CCOc1ccc(CCNC(=O)c2[nH]c3cc(OC)ccc3c2Sc2ccccc2)cc1OCC	22µM*
63	Cc1cccc(-c2nnc(SC(C)C(=O)Nc3ccccc3)n2C)c1 (stereo unspecified)	-2.0%
64	CC(C)C(=O)OCc1cc(=O)n2nc(C3CCCCC3)sc2n1	-1.5%
65	CC(C)Sc1ncc(Cl)c(C(=O)Nc2ccc(S(=O)(=O)N(C)c3ccccc3)cc2)n1	-7.7%
66	Cc1ccc(NC(=O)c2cnn(-c3ccc(C)c(C)c3)c2C2CCN(C(=O)OC(C)(C)C)CC2)c(C)c1	2.0%
67	COc1ccccc1OCCn1c(COc2cc(C)ccc2C)nc2ccccc21	2.8%
68	CCOc1ccc(C2CC(=O)NC(NC(=O)c3ccc(C)cc3)=N2)cc1 (stereo unspecified)	-2.5%
69	Cc1cc(C)cc(NC(=O)N2CCN3CCCCC3C2)c1 (stereo unspecified)	1.0%
70	Cc1cc(C)cc(N(C)S(=O)(=O)c2nnc(NC(=O)COc3ccc(C)c(C)c3)s2)c1	-6.8%
71	CCC(=O)N1CCc2cc(Br)cc(S(=O)(=O)N3CCCC(C(=O)Nc4ccc(C(C)C)cc4)C3)c21 (stereo unspecified)	-2.9%
72	CCN1CCN(c2ncc3c(n2)CCN(Cc2cc(Br)cs2)C3)CC1	-20%
73	COc1ccc(Cl)cc1NC(=O)c1c(NCc2cccs2)sc2c1CCCC2	-4.6%
74	Cc1ccc(Cl)cc1NC(=O)NC1COc2ccccc2C1 (stereo unspecified)	-0.8%
75	CCN(C(=O)Cn1ncc2c(=O)oc3ccccc3c21)c1ccccc1F	-2.4%
76	O=C(NCc1ccccc1)C1CCN(S(=O)(=O)c2ccc3[nH]c(=O)ccc3c2)CC1	-17%
77	CCc1cc2c(-c3ccccc3)cc(=O)oc2c2c1OCN(Cc1ccc(F)cc1)C2	?
78	O=C(COc1ccccc1)NCC(c1ccc(Cl)cc1)N1CCCCC1 (stereo unspecified)	1.6%
79	CCC(=O)N1CCc2cc(S(=O)(=O)NC(CC(C)C)C(=O)Nc3cccc(C)c3C)ccc21 (stereo unspecified)	-1.6%
80	O=C1CSC2(C(=O)N(Cc3ccccc3F)c3ccccc32)N1c1cccc(C(F)(F)F)c1 (stereo unspecified)	-1.7%
81	COc1ccc(-n2cc(-c3ccccc3)c3c(NC4CCCC4)ncnc32)cc1	?
82	O=C(Cn1ncc2c3ccccc3n(Cc3ccccc3)c2c1=O)NC1CCCCCC1	-15%
83	Cc1ccc2nc3c(cc(C(=O)NCC4CCCO4)c(=N)n3C(C)C)c(=O)n2c1 (stereo unspecified)	4.5%
84	Cc1ccc(-c2nn3c(-c4ccc(C)cc4)nnc3c3ccccc23)cc1	-4.3%
85	CCc1ccc(S(=O)(=O)c2cn(C)c3cc(N4CCN(CC)CC4)c(F)cc3c2=O)cc1	11µM*
86	Cc1ccc(-c2noc(CSc3nnc(C)n3-c3ccc(C)c(C)c3)n2)cc1	0.7%
87	CCn1nc(C)c2c(-c3ccccc3)cc(=O)n(C(C)C(=O)Nc3cc(C)ccc3C)c21 (stereo unspecified)	-13%
88	CCc1ccc(NC(=O)Cn2c(=O)n(Cc3ccc4c(c3)OCO4)c(=O)c3oc4ccccc4c32)cc1	-17%
89	Cn1c(=O)c2c(-c3ccccc3)n(-c3cccc(C#N)c3)cc2n(C)c1=O	-7.1%
90	Cc1cc(C)c2c(/C=C/c3ccc(N(C)C)cc3)ccnc2c1	-1.9%

# Single entries from the list:
# no. 71 in ClpP mod reads -2.9%
# no. 53 in ClpP mod reads -9.9%
# no. 54 in ClpP mod reads -5.7%
# no. 4 in ClpP mod reads -2.0%
# no. 30 in ClpP mod reads -11%

# Later entries
No.	mol	ClpP mod
91	Cc1cc(N2CCN(c3cccc(C(F)(F)F)c3)CC2)n2nc(-c3ccccc3)nc2n1	1.5%
92	O=c1c2sc3ccccc3c2n(Cc2ccc(F)cc2)c(=O)n1Cc1ccco1	?
93	CN(C)c1ccc(/C=C/c2ccnc3ccc([N+](=O)[O-])cc23)cc1	1.0%
94	COc1ccc(Cl)cc1NC(=O)CSc1c2c(nc3ccccc13)CCC2	0.7%
95	O=C(CSc1nccn1Cc1ccc(Cl)cc1)Nc1ccc2c(c1)OCO2	-0.7%
96	Cc1ccc(CNC(=O)c2c[nH]c3ccc(S(=O)(=O)N4CCOCC4)cc3c2=O)cc1	28µM*
97	O=C(C1COc2ccccc2O1)N(Cc1cccnc1)c1nc2ccc(Cl)cc2s1 (stereo unspecified)	-1.8%
98	Cc1cc(C)cc(NC(=O)C2CCN(c3cc(C)nc4c(-c5ccc(Cl)cc5)c(C)nn34)CC2)c1	?
99	Cc1cc(C)cc(NC(=O)CN2C(=O)c3ccccc3Sc3ccc(C(=O)N4CCOCC4)cc32)c1	-1.0%
100	O=C(CSc1ncc(S(=O)(=O)c2ccc(Cl)cc2)c(=O)[nH]1)Nc1ccc2c(c1)OCCO2	-0.7%
101	Cn1c(=O)cc(OCC(=O)NCc2ccc(F)cc2Cl)c2ccccc21	-4.7%
102	CCc1ccc(CNCc2c(C(=O)O)n(Cc3ccc(F)cc3Cl)c3cc(OC)ccc23)cc1	-14%
103	COc1ccc(-c2cc(C(=O)NCc3ccc(C)cc3)c3cc(C(C)C)ccc3n2)cc1	-30%
104	COc1ccc(C2c3c(-c4c(C)cc(C)cc4O)n[nH]c3C(=O)N2Cc2ccco2)cc1 (stereo unspecified)	-3.5%
105	Cc1cccc(C)c1NC(=O)c1ccc2nc(CCc3ccccc3)oc2c1	-6.6%
106	Cc1ccc(Nc2cc(C(=O)NC3CCCC3)c3ccccc3n2)c(C)c1	223%
107	CCCCCCC[n+]1ccc(/C=C/c2c[nH]c3ccccc23)c2ccccc21	3.6%
108	CC(C)c1ccc(S(=O)(=O)Nc2ccc3oc4c(c3c2)C(=O)CC(C)(C)C4)cc1	-3.2%
109	CC(C)(C)c1ccc(C(=O)NCC(c2ccco2)S(=O)(=O)c2ccc(F)cc2)cc1 (stereo unspecified)	1.0%
110	COc1ccc(-c2nc3ccccc3n3c(-c4ccccc4)c4c(=O)n(C)c(=O)n(C)c4c23)cc1	1.3%
